Mtb MenB inh: inhibitors of Mycobacterium tuberculosis MenB enzyme; P9WNP5; inhibition, %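 (about 12 µg/mL by stock and volumes)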; MenB enzyme assay, absorbance read-out; some hits fall short of the stated cut; actives 0.43% (n = 100,000);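 active = mean of two replicates above 30%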;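 note: 0% = no compound and 100% = wells with inactive enzyme; the first replicate is given; strong numbers were not always called active; inactives centre near -10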
Target sequence (P9WNP5 whole entry, looked up): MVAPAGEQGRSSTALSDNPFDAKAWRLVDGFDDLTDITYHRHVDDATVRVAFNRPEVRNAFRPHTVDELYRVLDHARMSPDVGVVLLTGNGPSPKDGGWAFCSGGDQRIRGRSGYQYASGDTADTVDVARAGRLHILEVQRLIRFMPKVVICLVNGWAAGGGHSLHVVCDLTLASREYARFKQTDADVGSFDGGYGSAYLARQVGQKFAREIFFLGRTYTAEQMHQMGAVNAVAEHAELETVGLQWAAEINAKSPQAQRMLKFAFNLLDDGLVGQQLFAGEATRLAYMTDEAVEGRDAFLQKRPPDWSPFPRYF
Polio RdRp inh: poliovirus RNA polymerase inhibition | P03300 | poliovirus polymerase elongation, fluorescence polarization; hits give low values | % elongation, % (compound at 16.7 µg/mL) | actives 0.66% (n = 150,000) | AID 588519; in the data active = % elongation below about 90%; note: some results filed as inactive read as strong as hits
MbtI inh: MbtI salicylate synthase inhibition; P9WFX0; purified MbtI enzyme, fluorescence intensity read-out; inhibition, %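 (about 17 µg/mL by stock and volumes)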; actives 0.89% (n = 100,000);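 active = above 50% in both replicates, above 80% if mildly self-fluorescent; inactive = the rest, strongly fluorescent compounds included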;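 note: 0% = mean of negative and 100% = mean of positive controls; one replicate is shown; some compounds called inactive have numbers as strong as hits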
Target sequence (P9WFX0 whole entry, looked up): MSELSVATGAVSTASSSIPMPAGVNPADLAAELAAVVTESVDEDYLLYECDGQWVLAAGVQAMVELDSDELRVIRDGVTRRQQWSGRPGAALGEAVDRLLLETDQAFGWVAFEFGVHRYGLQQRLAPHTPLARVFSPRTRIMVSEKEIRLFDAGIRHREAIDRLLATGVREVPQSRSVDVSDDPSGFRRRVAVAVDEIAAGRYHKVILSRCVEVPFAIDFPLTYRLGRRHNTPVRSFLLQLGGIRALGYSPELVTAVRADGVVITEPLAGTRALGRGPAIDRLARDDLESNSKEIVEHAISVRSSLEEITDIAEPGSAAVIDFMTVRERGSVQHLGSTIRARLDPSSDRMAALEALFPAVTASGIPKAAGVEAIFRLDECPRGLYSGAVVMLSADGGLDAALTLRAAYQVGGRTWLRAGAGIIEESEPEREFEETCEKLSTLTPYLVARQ
Polio RdRp inh intensity: recorded beside Polio RdRp inh, whose call it bears; % elongation; measured here: total intensity read-out; formula for this scale not given here;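 total fluorescence in place of polarization; lower means less elongation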
Numbers without * were called inactive; i = inactive; . = no result given.

SMILES | Mtb MenB inh | Polio RdRp inh | Polio RdRp inh intensity | MbtI inh
O=C(COC(=O)Cc1n[nH]c(=O)c2ccccc12)Nc1ccccc1 | 8.0 | 102.0 | 97.0 | 13.3
CCOC(=O)C1CCCN(C(=O)c2ccc3c(c2)N(C)CCS3)C1 (configuration not stated) | -2.5 | 100.0 | 102.0 | 12.2
CCn1c2ccccc2c2nnc(N3CCC(C)CC3)nc21 | -10.1 | 103.0 | 109.0 | -12.7
Cc1ccccc1CN1C(=O)C(O)(CC(=O)/C=C/c2ccco2)c2ccccc21 (configuration not stated) | -35.8 | 102.0 | 105.0 | 14.9
CCN(C(=O)c1cnc2sccn2c1=O)c1ccccc1 | -13.3 | 101.0 | 96.0 | 3.8
O=C(C1CCCN(Cc2ccco2)C1)N1CCCCCC1 (configuration not stated) | 4.2 | 101.0 | 104.0 | -12.4
Clc1ccccc1OCc1nnc(-c2ccccc2)o1 | -31.0 | 104.0 | 106.0 | -11.9
CCc1onc(C)c1C(=O)Nc1ccc(N2CCOCC2)cc1 | -29.0 | 98.0 | 90.0 | -32.0
CCOC(=O)C1CCCN(C(=O)c2ccc(Cl)cc2)C1 (configuration not stated) | -12.3 | 104.0 | 103.0 | -14.9
CC1=CC(C)C2(COC(=O)Nc3ccccc3)COC(C)C1C2C (configuration not stated) | -44.1 | 102.0 | 101.0 | -0.9
CC[n+]1c(C)sc2ccccc21 | . | 105.0 | 107.0 | 4.6
CC(=O)n1c2ccccc2c2nc(C)sc21 | -21.4 | 104.0 | 104.0 | 4.2
CCN(CC)C/C(C)=N/Nc1ccccc1 | -11.2 | 104.0 | 102.0 | -0.8
O=C(Cn1cnc2ccccc2c1=O)Nc1cc(C(F)(F)F)ccc1N1CCOCC1 | -20.0 | 98.0 | 105.0 | -10.3
CCOc1cc(C(=O)NC(C)(C)CC)cc(OCC)c1OCC | -19.1 | 102.0 | 98.0 | 2.1
COc1cc(OC)c(OC)cc1CO | -12.3 | 98.0 | 94.0 | 15.6
CC(C)CN(CC(C)C)C(=O)CSc1nnc(C(C)N(C)C)n1Cc1ccccc1 (configuration not stated) | -55.8 | 104.0 | 111.0 | -4.8
CCn1c(O)c(C=Nc2cc(S(=O)(=O)CC)ccc2O)c(=O)n(CC)c1=S | -45.3 | 140.0 | 149.0 | 15.6
CCOc1ccccc1NC1=NC(C)(C)CS1 | . | 100.0 | 107.0 | -8.2
CC(C)c1cc(NC(=O)COC(=O)c2cc3c(s2)CCCCC3)on1 | -5.9 | 105.0 | 107.0 | -0.3
COc1ccc(/C=C2/N=C(N3CCOCC3)SC2=O)cc1OC | -91.1 | 100.0 | 101.0 | 0.1
CCOC(=O)CCc1c(C)nn2cnnc2c1C | -2.4 | 105.0 | 98.0 | i
COC(=O)C1CCN(C(=O)COC(=O)CCc2nc3ccccc3c(=O)[nH]2)CC1 | 7.5 | 105.0 | 111.0 | 0.5
O=c1[nH][nH]c2nc(C(F)(F)F)cc(C(F)(F)F)c12 | -21.6 | 103.0 | 108.0 | .
O=C(O)c1ccc(CSc2ccc(Cl)cc2)cc1 | . | 99.0 | 104.0 | 11.2
COc1ccc(C2=NN(C(=O)COn3nnc4ccccc43)C(c3ccco3)C2)cc1 (configuration not stated) | 6.7 | 104.0 | 108.0 | -66.2
CC(C)(C)NC(=O)c1ccc(-n2nc(C(F)(F)F)c3c2-c2ccoc2CC3)cc1 | -20.0 | 104.0 | 105.0 | 8.0
COc1nc(F)c(F)c(Oc2ccc(C)cc2)c1F | -20.6 | 104.0 | 102.0 | -4.2
Cc1cc(C)nc(NC(N)=NCc2ccccc2Cl)n1 | -9.2 | 100.0 | 106.0 | .
CC(C)(C)NC(=O)CSc1nc(N)c(C#N)cc1C#N | 3.2 | 106.0 | 108.0 | .
COc1cc(/C=N/N=C2\NC(=O)C(Cc3ccc(Cl)cc3)S2)ccc1O (configuration not stated) | -9.4 | 100.0 | 104.0 | -2.9
Cc1ccc(/C=C2/SC(N3CCCC3)=NC2=O)cc1 | -4.4 | 103.0 | 103.0 | -7.2
COC(=O)c1ccc(COC(=O)c2ccccn2)cc1 | 21.2 | 100.0 | 104.0 | 0.1
N#Cc1c(NC(=O)c2ccccc2)oc(-c2ccccc2)c1-c1ccccc1 | -0.7 | 101.0 | 103.0 | 79.7
CCC(C(=O)NCc1cccc(OC)c1OC)n1sc2ccccc2c1=O (configuration not stated) | -1.2 | 103.0 | 106.0 | -0.8
O=C(Cn1cc2c(n1)CCCCC2)NCc1ccc(F)cc1 | -25.4 | 103.0 | 102.0 | -10.1
N#CC1=C(S)NC(=O)C(C#N)C12CCCCC2 (configuration not stated) | -29.6 | 104.0 | 106.0 | 91.0*
CC1(C)C2CCC1(CS(=O)(=O)NC(CC(=O)O)c1cccc(Br)c1)C(=O)C2 (configuration not stated) | 5.3 | 102.0 | 100.0 | 2.9
Cc1ccc(CNC(=O)C2=NN(c3ccccc3)C(=O)CC2)cc1 | -13.8 | 107.0 | 111.0 | -4.6
COc1cc2c(cc1OC)C(c1cccs1)N(C(=O)/C=C/c1ccco1)CC2 (configuration not stated) | -7.8 | 106.0 | 104.0 | 59.5
C=CCSc1nc(C)cc(C)c1C(=O)Nc1ccccc1 | -10.0 | 100.0 | 102.0 | 9.2
CCOc1ccc(NC(=O)CCNc2ccccc2OC)cc1 | -6.9 | 99.0 | 94.0 | -4.5
CCn1c(-c2cc(OC)c(OC)c(OC)c2)nc2ccccc21 | 11.0 | 102.0 | 104.0 | 88.7
Cc1ccc2oc(=O)c3cc(C(=O)N(CC(C)C)CC(C)C)sc3c2c1 | -9.9 | 104.0 | 104.0 | 4.0
O=C(COc1ccccc1)NN1C(=O)CSC1=S | -116.9 | 101.0 | 100.0 | 9.7
CCC(=O)Nc1nonc1-c1nc2ccccc2n1C | 3.4 | 98.0 | 109.0 | .
C[n+]1ccccc1C(O)Cc1ccncc1 (configuration not stated) | 10.2 | 99.0 | 101.0 | -4.4
O=C(NC1CC1)c1sc2cc(F)ccc2c1Cl | . | 104.0 | 107.0 | 5.4
O=C(CC12CC3CC(CC(C3)C1)C2)NCC(=O)N1CCCC1 | -15.9 | 86.0* | 103.0* | -14.4
CC(C)c1ccc(OCC(=O)Nc2ccc(N3CCN(C)CC3)cc2)cc1 | 0.3 | 100.0 | 101.0 | -5.4
CCc1ccc2c(c1)SC1=NS(=O)(=O)CCN12 | 0.3 | 100.0 | 106.0 | 20.0
CC1Cc2ccccc2N1C(=O)Cn1cnc2ccccc2c1=O (configuration not stated) | -15.1 | 103.0 | 98.0 | -3.3
CN(Cc1ccc(Cl)c(Cl)c1)Cn1nnc2ccccc21 | -15.8 | 103.0 | 108.0 | -13.3
COc1cc2nc(C)n(C(=S)S)c2cc1OC | -25.3 | 78.0* | 80.0* | 10.3
Oc1cccc2ccc[n+](CC(O)Cn3c4ccccc4c4ccccc43)c12 (configuration not stated) | -2.2 | 97.0 | 96.0 | 1.2
CCn1c(C(=O)O)c(CC(=O)Nc2cc(OC)ccc2OC)c2ccccc21 | 11.1 | 98.0 | 102.0 | 17.9
CCCC1=NN2CCS(=O)(=O)N=C2S1 | -1.2 | 105.0 | 106.0 | -5.8
Cc1occc1-c1nnc(SCCCC(=O)c2ccc(Br)cc2)n1C | -21.1 | 101.0 | 89.0 | 28.4
O=C(c1cccc(Oc2ccccc2)c1)N1CCN(c2ccccn2)CC1 | . | 102.0 | 103.0 | 0.4
CS(=O)(=O)N(C(=O)NC(=O)NC12CC3CC(CC(C3)C1)C2)C1CCCCC1 | -0.5 | 106.0 | 111.0 | 2.6

Taken from the listing for reference:
SMILES | Mtb MenB inh | Polio RdRp inh | Polio RdRp inh intensity | MbtI inh
Oc1cccc2ccc[n+](CC(O)Cn3c4ccccc4c4ccccc43)c12 (configuration not stated) | -2.2 | 97.0 | 96.0 | 1.2
CCn1c(C(=O)O)c(CC(=O)Nc2cc(OC)ccc2OC)c2ccccc21 | 11.1 | 98.0 | 102.0 | 17.9
CCCC1=NN2CCS(=O)(=O)N=C2S1 | -1.2 | 105.0 | 106.0 | -5.8
Cc1occc1-c1nnc(SCCCC(=O)c2ccc(Br)cc2)n1C | -21.1 | 101.0 | 89.0 | 28.4
O=C(c1cccc(Oc2ccccc2)c1)N1CCN(c2ccccn2)CC1 | . | 102.0 | 103.0 | 0.4
CS(=O)(=O)N(C(=O)NC(=O)NC12CC3CC(CC(C3)C1)C2)C1CCCCC1 | -0.5 | 106.0 | 111.0 | 2.6

Complete entries from above:
CCn1c(C(=O)O)c(CC(=O)Nc2cc(OC)ccc2OC)c2ccccc21 as listed: Mtb MenB inh: 11.1; Polio RdRp inh: 98.0; Polio RdRp inh intensity: 102.0; MbtI inh: 17.9
Oc1cccc2ccc[n+](CC(O)Cn3c4ccccc4c4ccccc43)c12 (configuration not stated) as listed: Mtb MenB inh: -2.2; Polio RdRp inh: 97.0; Polio RdRp inh intensity: 96.0; MbtI inh: 1.2

(continued)
SMILES | Mtb MenB inh | Polio RdRp inh | Polio RdRp inh intensity | MbtI inh
Cc1cc(-c2csc(NC(=O)/C=C/c3ccco3)n2)c(C)n1CC1CCCO1 (configuration not stated) | -3.2 | 105.0 | 108.0 | 15.7
COc1ccccc1S(=O)(=O)Cc1ccc(C(=O)NCc2ccccc2)o1 | -2.2 | 97.0 | 101.0 | 9.4
CSc1ncc(Cl)c(C(=O)C(C#N)c2nc3ccccc3c(=O)[nH]2)n1 (configuration not stated) | -6.9 | 102.0 | 104.0 | 19.1
O=C(NC1=NC2CCCCC2N1)c1ccccc1 (configuration not stated) | 4.3 | 100.0 | 95.0 | .
Cn1c(=O)c2sccc2n2c(CCC(=O)N3CCN(c4ncccn4)CC3)nnc12 | 8.5 | 101.0 | 103.0 | 2.2
CC1CCCC(NC(=O)COC(=O)c2cncc(Br)c2)C1C (configuration not stated) | -26.4 | 101.0 | 109.0 | 3.2
CN(C(=O)c1ccco1)c1ccccc1 | 9.6 | 98.0 | 97.0 | -11.0
N#CCCN(Cc1ccco1)C(=O)Nc1ccccc1 | 2.9 | 101.0 | 97.0 | 5.1
CN(C)CCC(=O)c1ccc(Br)cc1 | -6.4 | 102.0 | 106.0 | 69.0*
FC(F)(F)Oc1ccccc1-c1nnc(-c2ccccc2Cl)o1 | -18.4 | 102.0 | 106.0 | -9.4
c1ccc(CN2CCC(c3nc4ccccc4[nH]3)CC2)cc1 | -16.6 | 106.0 | 103.0 | -8.9
Cc1ccc(CNC(=O)CC(C)C)cc1 | -46.0 | 99.0 | 109.0 | .
Cc1cc(=O)[nH]c(Nc2cccc(Br)c2)n1 | -9.2 | 101.0 | 104.0 | -13.6
c1ccc(-n2cnnc2)cc1 | . | 103.0 | 105.0 | -12.3
CCSc1nnc(C2CCN(Cc3ccncc3)CC2)n1C | -9.9 | 100.0 | 103.0 | -5.2
N#CC(C#N)=Cc1cn(CCOc2ccc3c(c2)OCO3)c2ccccc12 | -59.8 | 103.0 | 102.0 | -5.8
O=C(Cn1cc(S(=O)(=O)N2CCCC2)ccc1=O)Nc1ccc(N2CCCCC2)cc1 | -21.5 | 103.0 | 107.0 | -7.2
CCN(CC)Cc1c(C(=O)N/N=C(\C)c2ccc(O)cc2)nnn1-c1nonc1N | 7.6 | 101.0 | 100.0 | -1.4
CCOC(=O)c1c(NCC(=O)N2CCOCC2)sc2c1CC(C)(C)NC2(C)C | 3.5 | 105.0 | 110.0 | -8.3
CCOc1ccc2oc(=O)cc(Cn3c(=O)c(OCC)nc4cccnc43)c2c1 | -1.9 | 98.0 | 104.0 | 111.3

Quoted at random: three records from the list
SMILES | Mtb MenB inh | Polio RdRp inh | Polio RdRp inh intensity | MbtI inh
CC1CCCC(NC(=O)COC(=O)c2cncc(Br)c2)C1C (configuration not stated) | -26.4 | 101.0 | 109.0 | 3.2
Cn1c(=O)c2sccc2n2c(CCC(=O)N3CCN(c4ncccn4)CC3)nnc12 | 8.5 | 101.0 | 103.0 | 2.2
CSc1ncc(Cl)c(C(=O)C(C#N)c2nc3ccccc3c(=O)[nH]2)n1 (configuration not stated) | -6.9 | 102.0 | 104.0 | 19.1

Later entries
SMILES | Mtb MenB inh | Polio RdRp inh | Polio RdRp inh intensity | MbtI inh
O=C(O)CN1C(=O)CCC1=O | -48.8 | 102.0 | 103.0 | 7.1
CCN(CC)C(=O)C(c1ccccc1)n1nnc(-c2ccc(Br)cc2)n1 (configuration not stated) | 5.5 | 105.0 | 99.0 | 7.2
O=C(Nc1ccccc1-c1nc2ccccc2s1)C1CCCN1S(=O)(=O)c1cccs1 (configuration not stated) | -35.6 | 107.0 | 102.0 | 15.6
CC(C)(C)OC(=O)N1CCC(CNS(=O)(=O)c2ccc3c(c2)OCCO3)CC1 | -1.9 | 107.0 | 111.0 | -11.7
CC(=O)NC1(c2cccc(F)c2)CCN(C(=O)NCc2ccccc2)CC1 | -5.1 | 101.0 | 103.0 | 57.0
O=C(Nc1cccc(C(F)(F)F)c1)c1cccc(S(=O)(=O)N2CCCC2)c1 | -0.2 | 100.0 | 102.0 | -7.0
CC(C)n1ncc2c(C(=O)N(C)Cc3ccco3)cc(-c3ccccc3)nc21 | -13.8 | 104.0 | 111.0 | 70.1
Nc1ccc(S(=O)(=O)N2CCCCCC2)cc1 | -16.5 | 101.0 | 103.0 | 15.4
NC(=O)CC1C(=O)N(c2ccc(Cl)cc2)C(=S)N1Cc1cccnc1 (configuration not stated) | -13.9 | 99.0 | 104.0 | -8.4
CCOC(=O)C(C#N)C1C(=O)Nc2ccccc21 (configuration not stated) | -23.7 | 103.0 | 108.0 | 25.2
O=C(Nc1ccc(-c2nc3ccccc3c(=O)o2)cc1)C1CC1 | 7.3 | 100.0 | 102.0 | 14.7

Rows were taken by chance. Share with any hit: about 1.8%.
